# PrP UTR inh: inhibition of PrP 5' UTR reporter expression | cell-based PrP 5' UTR mRNA reporter, plate reader | 0.35% of 340,000 active | AID 488862, 2010 | inhibition, % (no concentration beside the values);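 active means every replicate at 50% or more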;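 further: 0 = median of the neutral control wells; tested in H4 reporter cells; numbers are from one replicate; inactives centre near -14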
# ugtP null kill: growth inhibition of ugtP-null S. aureus, primary screen, RN4220 ugtP deletion, OD600; AID 1259309, 2017; growth inhibition, % (concentration not given with the values); 0.54% of 330,000 active; 16 h; some inactives read as strong as hits;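 active means z-score under -3 and OD600 up to 0.15 on both plates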;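 further: plate controls were untreated wells for no effect and antibiotic for full effect; wells of about 80 µL received 100 nL stock; the first replicate is given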
# Sa RN4220 lethal: growth inhibition of S. aureus RN4220, primary screen, OD600 | 16 h | inhibition, % (test concentration not listed) | 0.33% of 330,000 active | AID 1259311, 2017;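 active means z-score of -3 or lower and OD600 up to 0.18 on both plates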;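 further: plate controls were untreated cells for no effect and reference antibiotic for full effect; stock transfer was 100 nL into about 80 µL; one replicate is shown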
# BJeLR lethal: MLPCN primary cell-based screen for lethality selective to Ras in HRASV12 cells; AID 1554, 2009; 0.17% of 300,000 active; BJeLR (HRASV12) viability, CellTiter-Glo ATP luminescence, 48 h; reference of the scale not given here; inhibition, % (test concentration not listed);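 active means replicate mean above 50%; inconclusive means above 50% but judged a plate artefact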;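 further: 50 nL library stock added to about 25 µL; numbers are from one replicate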
# Mtb hypoxia inh: PubChem AID 1159583; 0.1% of 300,000 active; fluorescence inhibition, % (test concentration not listed); M. tuberculosis hypoxia-regulated fluorescent reporter, fluorescence;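 active means 35 to 45% if threefold the growth effect, above 45% if 1.5-fold the growth effect; inactive means the rest, general growth blockers included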;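 further: wells of about 50 µL received 100 nL stock; 0% = vehicle wells and 100% = reference inhibitor wells; whole bacteria with a GFP reporter of the hypoxia response; strong numbers were not always called active; many hits fall short of the cut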
# Bead autofluor: compound fluorescence in toxin protease inhibitor counterscreen. compound autofluorescence counterscreen, microsphere flow cytometry; active compounds read high. fluorescence intensity (test concentration not listed). 3.1% of 360,000 active. AID 624483;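 active means at least 3 SD above the mean of all compounds, about 16000 in these data; inconclusive means too few beads counted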;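 further: 100 nL of 1 mM stock went into each well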
# Mtb hypoxia inh growth: recorded beside Mtb hypoxia inh, whose call it bears; growth inhibition, %; measured here: M. tuberculosis growth (absorbance);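 0% = vehicle and 100% = reference antibiotic; read after six days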
# Active calls of the source: *; ? = inconclusive; . = no result given.
no.	compound	PrP UTR inh	ugtP null kill	Sa RN4220 lethal	BJeLR lethal
1	Cc1c(C(=O)N(C)CCn2ccnc2C)oc2c(F)cccc12	-14	-3	1.4	0
2	CC(C)Sc1nnc(OC(=O)N(C)C)n1-c1ccccc1	-17	5	-2.1	12
3	COc1ccc(Cn2c(=O)[nH]c3cc(C(=O)Nc4ccc(N5CCN(C)CC5)cc4)ccc32)cc1	-17	2	4.3	-6
4	CCc1cc(-c2[nH]ncc2-c2ccc([N+](=O)[O-])cc2)c(O)cc1OC	-1	8	-4.6	5
5	O/N=C1\CCCc2ccccc21	-7	.	.	-1
6	Cc1ccc(S(=O)(=O)Cn2nnnc2C(C(C)C)N2CCN(c3nc4ccccc4s3)CC2)cc1 (stereo not given)	-1	-1	-1.9	-6
7	O=C(CN1C(=O)C2C3CC(C(Br)C3Br)C2C1=O)N1CCN(Cc2ccccc2)CC1 (stereo not given)	-7	4	0.9	7
8	CCOC(=O)C1(C)C=C(Nc2ccc(NC(C)=O)cc2)C(=O)N1c1ccc(NC(C)=O)cc1 (stereo not given)	-62	-5	2.9	5
9	O=C(CC(c1ccccc1)c1cc(Br)ccc1O)N1CCCCC1 (stereo not given)	-25	7	1.6	2
10	COc1ccc(-n2c(C)c(C(C)=O)c3cc(OCC(N)=O)ccc32)cc1	-29	3	-0.2	-8
11	COC(=O)c1sccc1NC(=S)OC	-24	4	4.5	4
12	Cc1cccc(N2CCN(C(=O)CCCn3c(=O)[nH]c4ccsc4c3=O)CC2C)c1 (stereo not given)	3	13	4.5	6
13	CCN(CC)CCNC(=O)c1ccc(NC(=O)C2CCN(S(=O)(=O)c3ccc4c(c3)OCCO4)CC2)cc1	1	-3	-4.1	-7
14	C/C(=N/NC(=O)c1cccs1)c1ccc(NC(=O)COc2ccc(Cl)cc2)cc1	-18	.	.	15
15	Cc1ccccc1C(C(=O)NCc1ccccc1)N(Cc1ccco1)C(=O)c1ccccn1 (stereo not given)	-14	4	10	-7

no.	Mtb hypoxia inh	Mtb hypoxia inh growth	Bead autofluor
1	-1	8	3151
2	-6	1	3826
3	9	7	1847
4	5	6	3800
5	.	.	3403
6	.	.	4542
7	6	6	3875
8	10	0	5502
9	-3	5	4300
10	-2	-9	3934
11	8	0	4784
12	6	0	3040
13	-4	-4	5550
14	.	.	4309
15	5	2	3154

# Screen by screen, quoted from above.
# ugtP null kill for entries 4 to 11: 8, ., -1, 4, -5, 7, 3, 4
# Mtb hypoxia inh growth for entries 4 to 11: 6, ., ., 6, 0, 5, -9, 0
# Sa RN4220 lethal for entries 4 to 11: -4.6, ., -1.9, 0.9, 2.9, 1.6, -0.2, 4.5

# Next entries:
no.	compound	PrP UTR inh	ugtP null kill	Sa RN4220 lethal	BJeLR lethal
16	COc1ccc(CCNC(=O)CSc2nn(-c3ccccc3)c(=S)s2)cc1OC	-20	6	3.9	5
17	Cc1cc(Br)c(S(=O)(=O)NCCN2CCOCC2)cc1C	0	2	0.7	6
18	CCOP(=O)(c1ccccc1)C1(O)CCCCC1 (stereo not given)	-30	-5	1.1	-3
19	CCNC(=O)C1CCCN1S(=O)(=O)c1ccc(C)cc1 (stereo not given)	-4	1	3.5	15
20	Cc1occc1C(=O)Nc1ccc([N+](=O)[O-])cc1Br	-17	-8	-3.0	3
21	C(=N\Nc1ccccc1)/c1nc2ccccc2s1	-105	.	.	4
22	COc1ccc(NC(=O)CSc2nnc(C)n2C2CC2)cc1S(=O)(=O)N1CCOCC1	-4	5	3.0	.
23	CN(C(=O)CSc1n[nH]c(N)n1)C1CCCCC1	-6	5	2.9	.
24	CCc1cc(-c2[nH]ncc2-c2ccc(OC)cc2)c(O)cc1O	-34	8	-10	2
25	COc1ccc(NC(=O)c2nc[nH]c2C(=O)NC(C)C(=O)OC(C)(C)C)cc1 (stereo not given)	.	4	4.9	.
26	COc1ccc([C@H]2/C=C\CN(C(=O)C3CC3)[C@@H](C)C(=O)N2Cc2ccc(F)cc2)cc1	-22	.	.	10
27	CCN(CC)C(=O)CSCC(=O)Nc1ccccc1	-5	2	3.2	5
28	CCOc1ccc(C(=O)N2CCN(S(=O)(=O)c3cccs3)CC2)c(OCC)c1	3	5	6.1	-11
29	Cc1nn(C)cc1CN(C)C(=O)c1nn2c(c1Cl)NC(c1cccs1)CC2C(F)(F)F (stereo not given)	-14	-1	-0.7	-14
30	Nc1ccc2oc(-c3cccc(Br)c3)nc2c1	-42	-16	6.2	6

no.	Mtb hypoxia inh	Mtb hypoxia inh growth	Bead autofluor
16	3	8	2630
17	3	9	9787
18	.	.	2755
19	12	9	11170
20	-8	-4	5102
21	.	.	5437
22	-1	1	6464
23	7	-1	3949
24	10	4	3116
25	9	4	.
26	.	.	2950
27	6	11	10286
28	11	2	6239
29	3	-2	7961
30	5	12	2667

# Later entries:
no.	compound	PrP UTR inh	ugtP null kill	Sa RN4220 lethal	BJeLR lethal
31	CCc1cc2cc(C(=O)Nc3ccc(C)cc3)sc2s1	-36	0	1.1	-3
32	COc1ccccc1NC(=O)N1CCCC1C(=O)NCc1ccccc1F (stereo not given)	0	6	2.8	-3
33	Cc1ccc(CCN2C(=O)c3ccccc3C2C(=O)NCc2cccnc2)cc1 (stereo not given)	-45	7	4.0	1
34	Cc1cc(S(=O)(=O)NC[C@H]2O[C@@H](n3cnc4c(N)ncnc43)[C@H](O)[C@@H]2O)c(C)s1	-28	12	3.4	.
35	O=C(Cc1ccc(-n2c(=S)[nH]c3ccccc3c2=O)cc1)N1CCN(c2ccccc2)CC1	-14	-3	-0.6	-3
36	CCOc1ccc(-n2c(SCC(=O)Nc3cc(C(=O)O)ccc3Cl)nc3ccccc3c2=O)cc1	0	-4	11	7
37	CSc1nc(Oc2ccc(C)cc2)cc(C(F)(F)F)n1	-9	20	3.7	2
38	CS(=O)(=O)c1ccc2nc(NC(=O)c3ccc(=O)[nH]c3)sc2c1	-59	4	5.1	-5
39	N#Cc1c(N)nc2c(c1-c1ccccc1)CCCC2	-16	11	3.0	1
40	COc1ccccc1Cn1c(C)nc2ccccc21	.	10	2.2	-6
41	CCOc1ccc2oc(-c3ccccc3)c(C(=O)N(C)C)c2c1	-6	9	3.1	6
42	COc1ccccc1CNC(=O)c1cc(C(=O)CC(C)C)c[nH]1	-16	5	1.1	5
43	Nc1nonc1C(=Nc1ccccc1)NO	-7	7	3.4	18
44	Cc1ccccc1N1CCN(Cc2ccc3c(c2)OCO3)CC1	-14	11	-5.6	-2
45	CCn1c(SCC(=O)c2ccc3c(c2)Cc2ccccc2-3)nnc1-c1ccc(N)cc1	-37	-21	9.9	-2

no.	Mtb hypoxia inh	Mtb hypoxia inh growth	Bead autofluor
31	8	4	3088
32	3	4	3277
33	15	14	4386
34	2	-4	2893
35	-5	9	22575*
36	0	-1	4446
37	.	.	2508
38	-17	3	4218
39	5	6	21448*
40	4	1	4417
41	13	7	8201
42	8	2	3845
43	5	-5	11438
44	7	2	3888
45	2	0	23475*

# A different layout for some results above:
41	CCOc1ccc2oc(-c3ccccc3)c(C(=O)N(C)C)c2c1
42	COc1ccccc1CNC(=O)c1cc(C(=O)CC(C)C)c[nH]1
Screen / compound no. | 41 | 42
PrP UTR inh | -6 | -16
ugtP null kill | 9 | 5
Sa RN4220 lethal | 3.1 | 1.1
BJeLR lethal | 6 | 5
Mtb hypoxia inh | 13 | 8
Mtb hypoxia inh growth | 7 | 2
Bead autofluor | 8201 | 3845

# Later entries
no.	compound	PrP UTR inh	ugtP null kill	Sa RN4220 lethal	BJeLR lethal
46	C/C(=N\NC(=O)c1cccc(S(=O)(=O)N2CCOCC2)c1)c1ccc(OC(F)F)cc1	-25	.	.	-8
47	Cc1ccc(C2C(C#N)=C(N)Oc3n[nH]c(C)c32)cc1 (stereo not given)	-17	7	7.1	-9
48	COC(=O)c1cc(NC(=O)c2ccoc2C)cc(C(=O)OC)c1	-6	1	5.8	-1
49	Cc1ccc(CNC(=O)CCS(=O)(=O)c2ccc3c(c2)NC(=O)CS3)cc1	-17	-1	2.9	-3
50	CC(C)(C)c1ccc(OCC(=O)N(c2ccccn2)C2CCCCC2)cc1	-4	10	3.9	3
51	CN1CCCN(Cc2nc(-c3cccc(C(F)(F)F)c3)no2)CC1	-13	1	5.4	4
52	Nc1nc2ccc([N+](=O)[O-])c(N)c2s1	0	-8	-3.1	-5
53	CCOc1cc(C(=S)N2CCN(C)CC2)ccc1OCC(=O)N1CCOCC1	-39	4	2.6	-3
54	CC(C)CC(=O)Nc1ccnn1C1CCN(C(=O)c2ccccc2F)CC1	-9	14	5.3	-2
55	COc1ccc(CCN2CC(C(=O)NCCCn3nc(C)cc3C)CCC2=O)cc1 (stereo not given)	-3	-1	0.8	12
56	CN(c1ccc(C(=O)Nc2ccc3c(c2)OCO3)cc1)S(C)(=O)=O	-54	16	2.3	4
57	CC(NC(=O)c1cccc(S(=O)(=O)N(C)c2ccccc2)c1)c1cccnc1 (stereo not given)	-18	4	2.9	.
58	CCOC(=O)c1c(NC(=O)CCC(=O)O)sc2c1CCCCC2	-5	6	13	-10
59	CCOC(=O)c1ccc(NC(=O)CCc2nc(-c3ccc(C)cc3)no2)cc1	-15	-12	-2.7	3
60	Cc1sc(NC(=O)/C=C/c2ccc3c(c2)OCO3)nc1-c1ccccc1	-7	-10	-0.6	-4

no.	Mtb hypoxia inh	Mtb hypoxia inh growth	Bead autofluor
46	.	.	?
47	4	8	3925
48	2	5	4098
49	-4	-5	5183
50	7	2	2135
51	8	9	4218
52	2	7	3258
53	17	6	9479
54	6	3	6494
55	-4	-4	4246
56	2	7	3379
57	4	1	?
58	12	-3	2417
59	3	6	10190
60	3	3	2661

# Other structures:
no.	compound	PrP UTR inh	ugtP null kill	Sa RN4220 lethal	BJeLR lethal
61	CCOC(=O)c1ccc(NC(=O)c2c(NCc3ccccc3)[nH]c(=O)[nH]c2=O)cc1	.	2	4.4	6
62	O=C(Cn1nc(C(=O)O)c2ccccc2c1=O)Nc1cccc(S(=O)(=O)N2CCCCCC2)c1	-5	10	3.4	.
63	O=C(CNC(=O)c1ccncc1)N/N=C/c1ccc(Br)cc1	5	.	.	-4
64	O=C(c1ccncc1)N1CCN(S(=O)(=O)c2ccc(F)cc2)CC1	-7	4	0.3	-8
65	O=C(c1ccc2c(c1)OCO2)N1CCN(c2ccccc2F)CC1	-2	0	2.1	-9
66	COC(=O)c1cccc(NC(=O)Cn2cnc3ccccc3c2=O)c1	-13	1	4.3	-3
67	CC(C)[C@H](NC(=O)N1CCn2c1nc1ccccc12)C(=O)N[C@H](Cc1ccccc1)C(=O)O	-1	-9	-3.4	0
68	CC(C)c1ccc(N(C(=O)C(F)(F)F)C(C(=O)NC2CCCCC2)c2ccncc2)cc1 (stereo not given)	-16	-1	3.4	-12
69	COc1cccc(/C=C/C(=O)c2ccc(NS(=O)(=O)c3ccc(C)cc3)cc2)c1	-4	-8	-7.6	2
70	COc1ccc(/C=N/NC(=O)c2nnn(-c3nonc3N)c2CN(C)c2ccccc2)cc1	-23	.	.	3
71	CC(=O)NC(=S)Nc1cc(C(F)(F)F)ccc1N1CCOCC1	1	1	9.5	2
72	COc1ccc(/C=C2\Sc3ccc(C(=O)NCCCN4CCCC4)cc3N(C)C2=O)cc1OC	13	2	-1.2	3
73	CC(C)(C)OC(=O)N/N=C/c1ccc(Br)cc1	-69	.	.	16
74	Cc1ccc(Cc2nc(-c3ccccn3)no2)cc1	-50	5	8.5	0
75	COc1ccc(-c2cc(=O)oc3c(C)c(OC(C)C(C)=O)ccc23)cc1 (stereo not given)	1	9	9.1	13
76	C/C=C/c1ccc(OCCCNC(C)CC)c(OC)c1 (stereo not given)	-16	0	4.2	8
77	CCN(CC(=O)Nc1c(F)cccc1F)C(=O)c1cccc(S(=O)(=O)N2CCCc3ccccc32)c1	1	5	4.8	.

no.	Mtb hypoxia inh	Mtb hypoxia inh growth	Bead autofluor
61	3	-7	.
62	9	-1	3126
63	.	.	4325
64	12	-13	4779
65	-82	-25	4303
66	19	8	5861
67	.	.	4181
68	0	-2	5298
69	5	4	2112
70	.	.	5274
71	2	2	2358
72	6	0	6610
73	.	.	2372
74	.	.	4395
75	8	3	14140
76	6	-1	3922
77	0	-2	2926

# Source: PubChem BioAssay
